Rce1 inh = yeast Rce1p protease inhibitors, primary screen, biochemical, fluorescence, cell-free homogeneous | yeast membranes, quenched prenylated peptide cleavage fluorescence | calls only | actives 0.27% (n = 290,000) | AID 2563, 2010;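 active = fall in fluorescence gain of 50% or more versus controls, with final raw signal at or below 3038400; inconclusive = same 50% fall but final raw signal above 3038400; inactive = fall in fluorescence gain under 50%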;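 also: plate controls were neutral control wells for no effect and wells lacking membranes for full effect; tested at 10 µM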
Target sequence (Q03530 whole entry, looked up): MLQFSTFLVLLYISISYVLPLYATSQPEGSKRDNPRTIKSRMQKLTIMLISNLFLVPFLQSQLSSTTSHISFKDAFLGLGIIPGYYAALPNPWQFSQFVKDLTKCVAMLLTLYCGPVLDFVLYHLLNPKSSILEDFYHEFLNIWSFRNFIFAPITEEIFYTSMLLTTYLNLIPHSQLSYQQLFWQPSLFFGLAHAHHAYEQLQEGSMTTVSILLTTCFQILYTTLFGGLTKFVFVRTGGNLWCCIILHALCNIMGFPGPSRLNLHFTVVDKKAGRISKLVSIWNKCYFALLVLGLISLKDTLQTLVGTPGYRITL
PABP polyA inh = PABP poly(A) RNA binding inhibitors, primary screen, biochemical, fluorescence polarization, uHTS. Polyadenylate-binding protein 1 (Homo sapiens), P11940. AID 2014, 2009. inhibition, % at 35 µM. actives 1% (n = 290,000);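 active = 50% or more with normal probe brightness, or confirmed in later tests; inconclusive = above 50% with abnormal brightness, or retests that disagree; inactive = below 50% or failed in later tests; about a fifth of its hits are not listed in these tables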;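 also: calls also rest on retests at 20 µM and on dose response follow-up; controls were probe without protein and protein plus probe with vehicle; some compounds called inactive have numbers as strong as hits; many hits fall short of the cut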
Target sequence (P11940 whole entry, looked up): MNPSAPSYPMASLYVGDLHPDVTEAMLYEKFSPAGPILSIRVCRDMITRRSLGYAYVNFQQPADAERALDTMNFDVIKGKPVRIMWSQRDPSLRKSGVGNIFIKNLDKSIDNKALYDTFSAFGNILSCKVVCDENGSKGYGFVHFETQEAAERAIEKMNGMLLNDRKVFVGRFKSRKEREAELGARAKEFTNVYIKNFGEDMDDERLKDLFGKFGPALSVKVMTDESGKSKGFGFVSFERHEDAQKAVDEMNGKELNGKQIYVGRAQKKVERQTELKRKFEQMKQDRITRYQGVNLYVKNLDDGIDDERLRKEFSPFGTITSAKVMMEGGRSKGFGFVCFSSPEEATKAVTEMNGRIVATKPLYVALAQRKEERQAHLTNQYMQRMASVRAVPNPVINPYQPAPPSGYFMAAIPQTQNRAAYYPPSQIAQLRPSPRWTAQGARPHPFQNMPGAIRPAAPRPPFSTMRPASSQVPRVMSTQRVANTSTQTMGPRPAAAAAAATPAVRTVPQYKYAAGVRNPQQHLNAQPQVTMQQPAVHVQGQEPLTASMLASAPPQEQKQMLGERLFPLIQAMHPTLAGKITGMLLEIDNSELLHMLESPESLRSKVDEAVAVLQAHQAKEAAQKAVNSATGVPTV
MT1-MMP act inh = blockers of MT1-MMP proenzyme processing, primary screen, HT1080 RFP-PRO-GFP cells, GFP/RFP fluorescence; GFP/RFP ratio change, % at 20 µM; Matrix metalloproteinase-14 (Homo sapiens), P50281; actives 0.061% (n = 360,000); GFP/RFP ratio fluorescence, overnight; percent of plate control window, DMSO zero;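 active = GFP/RFP ratio change of at least 30% with cell ATP level not reduced by more than half and red fluorescence within 50% of control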; also: strong numbers were not always called active
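Assay system – RFP-PRO-GFP reporter HT1080 cells · Compound dosing – single dose of 20 µM compound, 1% DMSO final · Incubation – overnight compound exposure at 37 °C · Measure – GFP/RFP fluorescence ratio · Benchmarks – DMSO wells and RFP-L50D-GFP cells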
eIF4H FP inh = human eIF4H binding inhibitors, primary screen, translation initiation inhibitor project, biochemical, uHTS, fluorescence polarization; actives 0.94% (n = 290,000); inhibition, % at 35 µM; Eukaryotic translation initiation factor 4H (Homo sapiens), Q15056; eIF4H fluorescence polarization binding assay;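 active = 50% or more with normal probe brightness, or confirmed in later tests; inconclusive = above 50% with abnormal brightness, or retests that disagree; inactive = below 50% or failed in later tests; about a fifth of its hits are not listed in these tables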;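 also: calls also rest on retests at 20 µM and on dose response follow-up; 0% = protein and probe with vehicle and 100% = probe without protein; strong numbers were not always called active; many hits fall short of the cut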
UUG fidelity = modulators of yeast start codon fidelity, primary screen, whole organism, S. cerevisiae, single point, plate reader; AID 602363, 2012; activity score, % at 18.7 µM; actives 0.13% (n = 350,000); S. cerevisiae UUG-firefly luciferase reporter, luminescence/redox ratio;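 active = replicate mean at a twofold rise or more, about +100% in these data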;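 also: firefly luciferase made from a UUG start codon reports start codon fidelity; reporter light over untreated wells divided by growth signal over untreated wells; some hits fall short of that in this replicate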
CSC inhib = cancer stem cell viability inhibitors, primary screen, luminescence. cancer stem cell-like cells viability. inhibition, % at 7.5 µM. actives 1.1% (n = 300,000). AID 2717, 2010;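 active = mean at 75% or more and at least half the replicates too; inconclusive = mean and replicates disagree; tested in HMLE shEcad cells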;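 also: 0% = median of negative and 100% = median of positive control wells; the first replicate is given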
HIV Env fusion = inhibitors of HIV-1 Env-driven cell-cell fusion, primary screen, HeLa-JRFL effector, CEM21 target cells, luciferase. inhibition, % at 12.3 µM. actives 1.1% (n = 360,000);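 active = mean replicate inhibition score of at least 50 and every replicate individually at or above 50; inconclusive = only one of the two criteria met; inactive = mean below 50 and not all replicates reaching 50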;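 also: 0% = plate neutral controls and 100% = maraviroc near 300 nM; one replicate is shown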
eIF4H FP inh retest = also measured in eIF4H FP inh; calls as there; inhibition, %; compound at 20 µM; confirmation average;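 mean of two retest wells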
PABP polyA inh retest = further read-out of PABP polyA inh, marked with its call; inhibition, %; compound at 20 µM; confirmation repeats;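 mean of two retest wells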
MT1-MMP act inh RFP = second read-out of MT1-MMP act inh, no call of its own (marks repeat the call); RFP signal change, %; measured here: RFP expression control read;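 0 = vehicle wells; hits needed this value within 50% of zero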
Numbers without * were called inactive; i = inactive; ? = inconclusive; . = not tested or not shown; + = active, no number. A portion of the library; the hit share may differ from the screen's.

SMILES | Rce1 inh | PABP polyA inh | MT1-MMP act inh | MT1-MMP act inh RFP | eIF4H FP inh | UUG fidelity | CSC inhib | HIV Env fusion | others
Cc1cccc(CCN(CC(=O)NCc2ccc(F)cc2)C(=O)c2csnn2)c1 | i | -4 | 1 | -1 | 0 | -6 | . | 7
CC(C)c1ccc(NC(=S)Nc2cccc3ccccc23)cc1 | i | 1 | 5 | 3 | -4 | -23 | 37 | -14
COc1ccc(OC)c(/C=N/c2oc(-c3ccco3)c(-c3ccco3)c2C#N)c1 | + | ? | -10 | 8 | ? | -8 | 3 | -109
Fc1ccccc1NC(=S)Nc1ccc(CN2CCOCC2)cc1 | i | 7 | -1 | 1 | -4 | . | -22 | 8
Cc1ccc(OCC(=O)NNC(=O)C2CCN(c3nc(C)cc(C)n3)CC2)cc1 | i | -14 | 4 | -2 | -16 | -17 | . | 15
CCCn1c(SCC(=O)N2CCCC(C)C2)nnc1-c1ccccn1 (stereo not drawn) | i | -7 | -3 | 0 | -10 | . | -9 | 8
CCSc1ncc(Cl)c(C(=O)Nc2sc3c(c2C(=O)NCc2cccnc2)CCCC3)n1 | i | -15 | -37 | -1 | -8 | . | . | .
CCSC1=N/C(=C/c2ccsc2)C(=O)N1c1ccccc1 | i | 10 | 4 | -1 | -1 | . | 19 | 3
Cc1ccc(CNCC(O)(c2ccccc2)c2ccc(Cl)cc2)cc1 (stereo not drawn) | i | 14 | -8 | -7 | 1 | 12 | . | -5
CC(C)C(=O)N1CCN(c2ccc(NC(=O)c3cccs3)cc2Cl)CC1 | i | 7 | 4 | -4 | -4 | . | 12 | 21
C=CCNC(=O)c1ccc([N+](=O)[O-])c(Cl)c1 | i | -6 | 1 | 0 | 6 | . | 2 | 9
COc1ccc(C(=O)OCCN2C(=O)c3ccccc3C2=O)cc1 | i | -6 | 1 | 3 | -12 | -11 | -21 | .
COc1ccc(CC(=O)Nc2nnc(CC(C)C)s2)cc1S(=O)(=O)N1CCOCC1 | . | . | 2 | -3 | . | 15 | . | -16
O=C(Nc1ccc(F)cc1)C1CCN(c2nnnn2-c2ccccc2)CC1 | i | -5 | -4 | 2 | 2 | -11 | 14 | 19
N#CC1=C(N)OC2=C(CC/C2=C\c2ccccc2Cl)C1c1ccccc1Cl (stereo not drawn) | i | 9.1* | -32 | -11 | 59 | . | 67 | 11 | eIF4H FP inh retest=31;PABP polyA inh retest=70*
C=CCN(C(=O)Nc1ccc(F)cc1)C1CC(=O)N(c2ccc(OC)cc2)C1=O (stereo not drawn) | . | -7 | 2 | 0 | -9 | -4 | 3 | 1
CCC(=O)N1c2ccccc2-c2nnc(SC)nc2OC1c1ccc(N(C)C)cc1 (stereo not drawn) | i | -3 | -2 | 5 | -3 | -5 | -17 | 3
COc1cccc(-c2ccc(=O)n(CC(=O)Nc3cc4c(cc3NC(C)=O)OCCO4)n2)c1 | i | 5 | 2 | -4 | -11 | . | -17 | .
COc1ccc(OC)c(-c2csc(NC(=O)C3c4ccccc4Oc4ccccc43)n2)c1 | i | -6 | -30 | -24 | -8 | -8 | 9 | -131
O=C(COC(=O)COc1ccc(Cl)cc1)Nc1ncc(Br)s1 | . | . | 5 | 1 | . | -16 | . | -1
c1cnc2ncc3sccc3c2c1 | i | 1 | 0 | 5 | -6 | . | -18 | 0
COC(=O)c1cn(NC(=O)c2cccc(OC)c2)c(=O)c2ccccc12 | i | 11 | -1 | 9 | -5 | -12 | -8 | -24
Cc1ccc(S(=O)(=O)N2CCN(C(=O)Cn3nc(C)c([N+](=O)[O-])c3C)CC2)c(C)c1 | i | 1 | 2 | -2 | 14 | 1 | -8 | 6
Cc1c(NC(=O)C(C)Sc2nc3ccccc3c(=O)n2CCO)c(=O)n(-c2ccccc2)n1C (stereo not drawn) | i | 4 | 4 | 1 | 4 | -21 | 10 | -84
Cc1ccc(S(=O)(=O)N2CCN(S(=O)(=O)c3ccccc3Br)C2=O)cc1 | . | . | 1 | 2 | . | 1 | . | -19
O=C(O)c1ccc2c(c1)OCCO2 | i | 10 | 5 | 1 | -3 | -1 | 13 | .
COc1cc(-c2[nH]ncc2CN(C)Cc2cc(C)[nH]n2)cc(OC)c1OC | i | -9 | 1 | 2 | 0 | . | 6 | 0
CC1CCCC(C)N1/N=C/c1ccccc1F (stereo not drawn) | i | 21 | -1 | 1 | 7 | -2 | -9 | -9
CC(C)CN1CCN(CC#Cc2ccccc2)CC1CCO (stereo not drawn) | . | -7 | -1 | 2 | 0 | . | 7 | 3
OC(c1ccc(F)c(F)c1)c1nc(-c2ccc3c(c2)OCO3)cs1 (stereo not drawn) | . | . | 2 | 1 | . | -15 | . | 8

2 entries drawn at random from those above:
SMILES | Rce1 inh | PABP polyA inh | MT1-MMP act inh | MT1-MMP act inh RFP | eIF4H FP inh | UUG fidelity | CSC inhib | HIV Env fusion | others
Cc1ccc(CNCC(O)(c2ccccc2)c2ccc(Cl)cc2)cc1 (stereo not drawn) | i | 14 | -8 | -7 | 1 | 12 | . | -5
OC(c1ccc(F)c(F)c1)c1nc(-c2ccc3c(c2)OCO3)cs1 (stereo not drawn) | . | . | 2 | 1 | . | -15 | . | 8

Continuation:
SMILES | Rce1 inh | PABP polyA inh | MT1-MMP act inh | MT1-MMP act inh RFP | eIF4H FP inh | UUG fidelity | CSC inhib | HIV Env fusion | others
COc1ccc(Nc2cc(C)nc(NCc3ccccc3)n2)cc1 | i | -11 | 14 | -10 | -3 | 624* | 34 | 71*
CCc1ccc(N2CC(C(=O)Nc3cc(C)ccc3F)CC2=O)cc1 (stereo not drawn) | i | -6 | -2 | 3 | -2 | -14 | -8 | .
Cc1ccc(S(=O)(=O)N2CCCOC2CNC(=O)C(=O)NCCCn2ccnc2)cc1 (stereo not drawn) | i | -1 | -6 | -2 | 0 | . | 8 | -31
CCCNC(=O)NC(=O)CSc1ccc2c(c1)OCCO2 | . | -8 | 2 | 0 | 0 | -4 | -5 | .
Cn1c(=O)c(=O)n(C)c2cc(N3CCOCC3)c(NS(=O)(=O)c3ccc([N+](=O)[O-])cc3)cc21 | i | -4 | 3 | 1 | -12 | -16 | 16 | 1
O=C(/C=C/c1ccc2c(c1)OCCCO2)c1ccccc1O | i | -6 | -2 | -1 | -4 | . | 19 | -46
COc1cc(/C=C(\C#N)C(=O)c2c(C)[nH]c3ccccc23)cc(OC)c1OC | i | 20 | 7 | 7 | 2 | . | 2 | .
O=[n+]1c2c(n([O-])c3ccccc31)CCCC2 | i | 13 | 0 | 6 | -3 | 5 | -2 | 7
Cc1ccc(-c2nnc(SCC(=O)N/N=C/c3c(C)nn(-c4ccccc4)c3C)n2-c2ccccc2)cc1 | i | 8 | 0 | -4 | 3 | . | 10 | -91
CC1CN(C(=O)c2cc3cc(Br)ccc3[nH]2)CC(C)O1 (stereo not drawn) | i | 3 | -3 | 0 | 14 | -23 | -1 | 14
O=C(Oc1coc(CSc2nnc(NC(=O)C3CC3)s2)cc1=O)c1ccccc1 | i | -9 | 5 | 5 | 8 | . | 31 | .
CCc1cc2c(cc3c(=O)n(CC(=O)NCCCN4CC(C)CC(C)C4)ncn32)s1 (stereo not drawn) | . | 10 | 1 | 3 | -9 | -14 | . | .
Cc1cccc(OCC(=O)N(Cc2ccco2)C2CCS(=O)(=O)C2)c1 (stereo not drawn) | i | -8 | 2 | 9 | -16 | -10 | 4 | 4
C=CC[n+]1c(/C=C2\C=Cc3cc(C)ccc3N2CC)ccc2ccccc21 | i | -9 | 28 | 70 | 52 | . | 49 | 23 | eIF4H FP inh retest=-14;PABP polyA inh retest=0
COc1cc(-c2noc(CCCC(=O)NCc3ccco3)n2)cc(OC)c1OC | i | 5 | 2 | 4 | -2 | 3 | 3 | -16
CCCCCC(=O)NC(NC(=S)NC1CCS(=O)(=O)C1)C(Cl)(Cl)Cl (stereo not drawn) | i | 5 | 10 | 4 | -6 | -6 | -18 | -28
COc1cccc(CNC(=O)C2Cc3ccccc3CN2C(C)=O)c1 (stereo not drawn) | i | 2 | 2 | 3 | 8 | 5 | . | 8
Cc1cc(C)cc(-n2c(C)nc3cc(C(=O)O)ccc32)c1 | i | ? | 4 | 1 | -14 | . | -7 | -5
O=c1c2ccccc2c(C=Nc2cccc(S(=O)(=O)NCc3ccco3)c2)c(O)n1-c1ccc(Cl)cn1 | i | 38 | 2 | 2 | -10 | -1 | 11 | -57
Cc1cc(NC(=O)CCCn2nc(C)c([N+](=O)[O-])c2C)no1 | i | 2 | 0 | 5 | 3 | -16 | -5 | 11
CC1(C2CC2)NC(=O)NC1=O (stereo not drawn) | i | 1 | -1 | 6 | -6 | . | 12 | .
O=C1CCCC/C=C\C[C@H](CC(=O)N(CCO)Cc2ccccc2)C(=O)NCCO1 | . | . | 2 | 2 | . | 0 | -13 | -14
Fc1ccc(-c2ccnc3nc(N4CCN(c5ccccc5)CC4)nn23)cc1 | i | 7 | 3 | 3 | -6 | -14 | 0 | -43
O=C1c2cccc3c([N+](=O)[O-])c(O)cc(c23)C(=O)N1Nc1ccccc1 | i | -7 | -35 | 4 | 35 | 17 | 13 | 13
CC1Sc2ccc(S(=O)(=O)N3CCC(C(=O)NCc4ccccc4)CC3)cc2NC1=O (stereo not drawn) | i | 11 | 2 | -8 | 9 | 0 | -16 | -20
CCC(C)c1ccc(C(C)NC(=S)NC2CCCCC2)cc1 (stereo not drawn) | i | 2 | -6 | -19 | -12 | -31 | 1 | .
COc1ccc(NC(=S)N2CCC3CC2c2cc(-c4ccc5c(c4)OCO5)ccc23)c(OC)c1 (stereo not drawn) | . | . | 4 | -12 | . | -17 | . | 32

For reference, some entries already given.
SMILES | Rce1 inh | PABP polyA inh | MT1-MMP act inh | MT1-MMP act inh RFP | eIF4H FP inh | UUG fidelity | CSC inhib | HIV Env fusion | others
Cc1ccc(S(=O)(=O)N2CCCOC2CNC(=O)C(=O)NCCCn2ccnc2)cc1 (stereo not drawn) | i | -1 | -6 | -2 | 0 | . | 8 | -31
CCCNC(=O)NC(=O)CSc1ccc2c(c1)OCCO2 | . | -8 | 2 | 0 | 0 | -4 | -5 | .
Cn1c(=O)c(=O)n(C)c2cc(N3CCOCC3)c(NS(=O)(=O)c3ccc([N+](=O)[O-])cc3)cc21 | i | -4 | 3 | 1 | -12 | -16 | 16 | 1
O=C(/C=C/c1ccc2c(c1)OCCCO2)c1ccccc1O | i | -6 | -2 | -1 | -4 | . | 19 | -46
COc1cc(/C=C(\C#N)C(=O)c2c(C)[nH]c3ccccc23)cc(OC)c1OC | i | 20 | 7 | 7 | 2 | . | 2 | .
O=[n+]1c2c(n([O-])c3ccccc31)CCCC2 | i | 13 | 0 | 6 | -3 | 5 | -2 | 7
Cc1ccc(-c2nnc(SCC(=O)N/N=C/c3c(C)nn(-c4ccccc4)c3C)n2-c2ccccc2)cc1 | i | 8 | 0 | -4 | 3 | . | 10 | -91

Screens: PubChem, several laboratories
